Source: PubChem
CDC25B-CDK2 inh – human CDC25B-CDK2/CyclinA binding inhibition. P30305+P24941. z-score (test concentration not listed). 94,000 compounds, 0.72% hits. HTRF CDC25B-CDK2/CyclinA binding, anti-His/anti-Flag; stronger effect = higher value;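 also: score is relative to mean and SD of negative controls; strong numbers were not always called active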
TAR Tat displ – HIV-1 TAR-Tat binding disruption; 100,000 compounds, 0.6% hits; AID 1259389; z-score (no concentration beside the values); HIV-1 TAR RNA, Tat peptide displacement FRET; stronger effect = higher value;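 also: score is relative to mean and SD of negative controls; some compounds called inactive have numbers as strong as hits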
The depositor's hits bear a star; · = not tested or not shown.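 The calls were made as follows: active = z-score from 3 up in half or more of its runs; inactive = the rest.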

SMILES	CDC25B-CDK2 inh	TAR Tat displ
O=C(CCCc1nc(-c2ccccc2)no1)NCC1CCCO1 (stereo not drawn)	-0.93	0.45
CC12CC(c3ccccc3O1)N(C(=O)c1ccco1)C(=O)N2c1ccccc1 (stereo not drawn)	-0.17	·
COc1ccc(/C=C/c2nn3c(COc4ccccc4)nnc3s2)cc1	0.93	-0.2
COC(=O)C1=C(C)NC(C)=C(C(=O)OC(C)C)C1c1cccc2nonc12 (stereo not drawn)	·	-0.86
Cc1ccc(C2=Nn3c(Cc4ccccc4)nnc3SC2)cc1C	·	0.57
O=C(Nc1nn2c(-c3ccccc3)nnc2s1)c1ccco1	-1.9	17*
O=C(CSc1ncnc2c1sc1cccc(F)c12)N1CCN(c2ncccn2)CC1	·	-0.87
Cc1c(C(=O)NC2CCCCC2)oc2ccc(S(=O)(=O)N3CC(C)CC(C)C3)cc12 (stereo not drawn)	-0.95	·
CCOC(=O)c1c[nH]n2c(=O)c3c(nc12)CCCC3	0.61	·
Cc1cccc2c1NC1(CCCC1)CC2C (stereo not drawn)	-2.8	·
Cc1ccc(C2NC(=O)NC(O)(C(F)(F)F)C2C(=O)c2ccc(F)cc2)cc1 (stereo not drawn)	-1	·
CC(C)OCCCNC(=O)c1cc2n(n1)CC(C)(C(=O)NC1CCCCC1)N(C)C2=O (stereo not drawn)	·	1.7
CC1CN2C(=O)Cc3c(S(=O)(=O)N(C)Cc4ccccc4)ccc(c32)S1 (stereo not drawn)	·	0.78
O=C(O)c1noc2nc[nH]c(=O)c12	0.25	0.41
CC(C)c1ccc(NC(=O)CSc2nc(-c3ccc4c(c3)OCO4)nc3cc(=O)[nH]n23)cc1	·	24
CCC(Sc1nc(C)cc(C)n1)C(=O)Nc1nnc(C)s1 (stereo not drawn)	0.31	-0.33
COc1cc(OC)c(NS(=O)(=O)c2ccc3c(c2)n(C)c(=O)n3C)cc1Cl	-0.61	1.4
Fc1cc(CN2CCc3nc(Nc4ccc5c(c4)OCCO5)ncc3C2)ccc1Cl	·	2.2
O=C1CC(c2cc(F)cc(F)c2)c2c(nc(SCc3cccc(Cl)c3)[nH]c2=O)N1 (stereo not drawn)	-1.9	1.9
O=C(Sc1cccs1)C1CC2C=CC1CC2 (stereo not drawn)	-1.1	·
NO	-0.8	·
Cc1cc(NC(=O)CSc2nnc(Cc3cccn3C)n2CCc2ccccc2)no1	-2.2	·
O=C(Cn1cnc2sc3c(c2c1=O)CCCC3)Nc1ccc(Cl)cc1	·	0.27
CN1C(C(=O)N2CCCCC2)=CC(c2cccs2)=NS1(=O)=O	-2.3	1.9
CCCCNc1cc(C)nc2nc(-c3ccccc3)nn12	-2	2
CCC(C)NC(=O)c1cc2n(n1)C(C(F)(F)F)CC(c1ccc3c(c1)OCO3)N2 (stereo not drawn)	-0.88	0.16
CC1CCCC(NC(=O)C2(C)Cn3c(ccc3-c3ccco3)C(=O)N2Cc2cccs2)C1C (stereo not drawn)	·	-6
CCN(CC)c1cc(=O)n2c(n1)SCCC2	-1.7	1.8
O=C(CSc1nnc(N2CCOCC2)c2ccccc12)Nc1ccc(F)cc1F	-2.1	-0.39
O=C(CC1(O)C(=O)Nc2ccccc21)c1ccccc1F (stereo not drawn)	·	2.2
Cc1ccc(-c2nc3cnccn3c2Nc2ccc3c(c2)OCO3)cc1	1.2	·
CC(C)n1nnc2cc(S(=O)(=O)N3CCCC3C(=O)O)ccc21 (stereo not drawn)	0.28	1.9
Cc1ccc(-n2ncc3c(N4CCN(CCO)CC4)ncnc32)cc1Cl	·	0.44
COC(=O)Nc1nc2ccc(Sc3ccccc3)cc2[nH]1	·	1.4
Cn1nc(C(=O)N2CC=C(c3ccccc3)CC2)c2c1-c1ccccc1S(=O)(=O)C2	-0.32	0.84
Cn1c(=O)c(=O)n(C)c2cc(S(=O)(=O)CCC(=O)N3CCc4ccccc4C3)ccc21	-1.6	4.1*
Cc1cccc(Nc2ncncc2C#N)c1C	-1.9	·
Cc1ccc(-c2nnc(C3CCN(S(=O)(=O)c4ccccc4)CC3)o2)cc1	-0.89	1.2
O=C(NCc1ccc2c(c1)OCO2)c1ccc2nc(N3CCOCC3)sc2c1	-0.87	-0.63
CC1CN(CC(=O)N2CCCC2)c2ccccc2S1 (stereo not drawn)	·	0.42
Cc1ccc(OCCN2C(=O)C(=O)c3cc(Br)cc(C)c32)cc1	-3.4	2
N#CCc1ccc(NC(=O)c2ccccc2C(=O)Nc2ccc(CC#N)cc2)cc1	-0.84	·
N#Cc1c(NC(=O)CSc2cc(-c3ccccc3)ncn2)sc2c1CCC2	-1.5	0.76
Clc1ccc(-c2cn3ncsc3n2)cc1	-1.1	0.12
Cc1cc(N2CCN(CCO)CC2)n2nc(C(F)(F)F)c(-c3ccccc3Cl)c2n1	0.51	1.6
CCOc1ccc(OCC)c(S(=O)(=O)n2cc(C)nc2CC)c1	-0.66	3.1
CC1CCc2c(sc3nc(CCC(=O)N4CCN(c5ccc(Cl)cc5)CC4)[nH]c(=O)c23)C1 (stereo not drawn)	·	-1.6
CCCNc1cc(C)nc2c(-c3ccc(C)cc3)c(C(F)(F)F)nn12	-0.54	-0.28
O=C1c2cccc3cccc(c23)C(=O)N1CCCn1ccnc1	-0.13	·
Cc1nc2c(-c3ccccc3)c(C)[nH]n2c(=O)c1Cc1cccc(Cl)c1	-3.3	0.16
CC(c1ccccc1)N1CCn2c(nc3cc(NS(C)(=O)=O)ccc32)C1 (stereo not drawn)	-2.1	0.45
Cc1ccc(N2CCn3c(nc4ccccc43)C2)cc1N	0	-8.6
c1nc(NC2CCCCC2)c2c3c(sc2n1)CCCC3	-0.15	·
CCCSc1ncc(Cl)c(C(=O)Nc2nnc(CC)s2)n1	-1.3	2.3
O=C1c2oc3ccc(Cl)cc3c(=O)c2C(c2cccnc2)N1CCCN1CCOCC1 (stereo not drawn)	·	0.34
CC(=O)Nc1ccc(OCc2cc(=O)n3cc(Cl)ccc3n2)cc1	·	0.12
Fc1ccccc1CN1CCc2nc(N3CCCC3)ncc2C1	·	-0.08
CCN(CC)c1cc(NC(C)C)c2c3c(onc13)-c1ccccc1C2=O	-0.37	-4.2
Cc1nn(CCCC(=O)NCCCN2CCCCC2C)c(=O)c2cc3occc3n12 (stereo not drawn)	0.7	1.6
CCCNc1ncnc2onc(-c3ccc(C)cc3)c12	·	1.2
More compounds
SMILES	CDC25B-CDK2 inh	TAR Tat displ
COC(=O)Cn1cnc(=O)c(C#N)c1C	0.52	1.1
CCS(=O)(=O)c1ccc(NS(=O)(=O)c2sc3ccc(Cl)cc3c2C)cc1	-0.2	·
C=CCn1c(-c2ccccc2Br)n[nH]c1=S	-2.4	·
CCN1CCN(CCNC(=O)c2cccn2-c2nnc(N3CCCCC3)s2)CC1	·	0.5
CC(=O)NC1=NN(C(C)=O)C(c2ccc(OCCOc3ccc(C(C)(C)C)cc3)cc2)S1 (stereo not drawn)	-0.08	-0.44
O=C1CSC(c2ccc(Cl)cc2Cl)N1c1ccccn1 (stereo not drawn)	-2	·
CCOC(=O)c1c(C)oc2nc(C)nc(NCCC(C)C)c12	·	-0.81
Cc1ccc(NC(=O)C2C3C=CC4(O3)C2C(=O)N(CCC(C)C)C4C(=O)NC2CCCCC2)cc1C (stereo not drawn)	0.42	0.72
CCS(=O)(=O)N1CCC(c2c(C)n(Cc3ccc(F)cc3)c3ccccc23)CC1	·	0.65
COC(=O)c1sc2ccccc2c1S(=O)(=O)N1CCN(c2ccccc2F)CC1	·	-1.3
O=C(O)C1CSC(c2cccc(OCc3ccc(F)cc3)c2)N1 (stereo not drawn)	-0.22	·
Cc1nnc(SCc2c(F)cccc2Cl)[nH]c1=O	-1.6	·
CCc1cc2c3c([nH]c2cc1S(=O)(=O)N(C)Cc1cnn(-c2ccccc2)c1)CC(C)(C)CC3=O	·	0.96
CCc1nnc(SCC(=O)Nc2ccc(OC)cc2)c2cc3oc(C)cc3n12	·	-0.8
Cc1c(C(=O)NCc2ccccn2)oc2ccc(S(=O)(=O)N3CCC4(CC3)OCCO4)cc12	-0.26	·
O=C(Nc1ccc(Cl)cc1)C1CCC(CNc2c(N3CCOCC3)c(=O)c2=O)CC1 (stereo not drawn)	-2.5	0.43
CC(C)C(=O)OC1=CN(Cc2ccccc2)S(=O)(=O)c2ccccc21	0.38	0.77
O=C(CCCc1nnc2n3nc(-c4ccccc4)nc3c3ccccc3n12)NCc1ccccc1	-2	3.6
Cc1nn(-c2nc3ccccc3[nH]2)c2c1C(c1ccsc1)CC(=O)N2 (stereo not drawn)	·	2
CCc1nc2nc(C)cc(NCCN3CCN(c4ccc(OC)cc4)CC3)n2n1	-2	0.59

Sorted by formula weight (highest first): part of the list above.
SMILES	CDC25B-CDK2 inh	TAR Tat displ
Cc1ccc(NC(=O)C2C3C=CC4(O3)C2C(=O)N(CCC(C)C)C4C(=O)NC2CCCCC2)cc1C (stereo not drawn)	0.42	0.72
CCc1cc2c3c([nH]c2cc1S(=O)(=O)N(C)Cc1cnn(-c2ccccc2)c1)CC(C)(C)CC3=O	·	0.96
Cc1c(C(=O)NCc2ccccn2)oc2ccc(S(=O)(=O)N3CCC4(CC3)OCCO4)cc12	-0.26	·
O=C(CCCc1nnc2n3nc(-c4ccccc4)nc3c3ccccc3n12)NCc1ccccc1	-2	3.6
CC(=O)NC1=NN(C(C)=O)C(c2ccc(OCCOc3ccc(C(C)(C)C)cc3)cc2)S1 (stereo not drawn)	-0.08	-0.44
COC(=O)c1sc2ccccc2c1S(=O)(=O)N1CCN(c2ccccc2F)CC1	·	-1.3
O=C(Nc1ccc(Cl)cc1)C1CCC(CNc2c(N3CCOCC3)c(=O)c2=O)CC1 (stereo not drawn)	-2.5	0.43
CCS(=O)(=O)c1ccc(NS(=O)(=O)c2sc3ccc(Cl)cc3c2C)cc1	-0.2	·
CCc1nnc(SCC(=O)Nc2ccc(OC)cc2)c2cc3oc(C)cc3n12	·	-0.8
CC(C)C(=O)OC1=CN(Cc2ccccc2)S(=O)(=O)c2ccccc21	0.38	0.77
Cc1nn(-c2nc3ccccc3[nH]2)c2c1C(c1ccsc1)CC(=O)N2 (stereo not drawn)	·	2
O=C(O)C1CSC(c2cccc(OCc3ccc(F)cc3)c2)N1 (stereo not drawn)	-0.22	·
O=C1CSC(c2ccc(Cl)cc2Cl)N1c1ccccn1 (stereo not drawn)	-2	·
CCOC(=O)c1c(C)oc2nc(C)nc(NCCC(C)C)c12	·	-0.81
Cc1nnc(SCc2c(F)cccc2Cl)[nH]c1=O	-1.6	·

The listing continues:
SMILES	CDC25B-CDK2 inh	TAR Tat displ
O=C1c2ccccc2C(=O)c2c(F)ccc(F)c21	0.5	·
CCCN1C(=O)/C(=C2\SC(=S)N(CCC(=O)O)C2=O)c2ccccc21	-3	·
Cc1nn(-c2ccccc2)c(-n2cccc2)c1CNC(=O)NCCC(C)C	·	-0.49
O=C(c1ccc2snnc2c1)N1CCCCC1	-0.3	2.7
CC(=O)N1CCc2cc(Br)cc(S(=O)(=O)N3CCCC3c3ccco3)c21 (stereo not drawn)	-2.7	0.2
Cc1cc(=O)n(CC(=O)NCc2ccco2)c2c1c(C)nn2C	·	-0.73
CCc1ccc(Nc2ncnc3c2cnn3-c2ccc(F)cc2)cc1	·	1.7
O=C(Nc1ccccc1O)c1cc2ccccc2o1	-0.79	·
CCn1c2ccccc2c2nnc(NCc3ccc(OC)cc3)nc21	-0.72	1.2
O=C(O)c1cccc(S(=O)(=O)N2Cc3ccccc3C2)c1	0.6	0.67
COc1cc(C2Nc3ccccc3NC3=C2C(=O)CC(c2ccccc2)C3)cc(Br)c1O (stereo not drawn)	-3.5	-5.7
COc1cccc(C2C3=C(Nc4c2c(=O)n(C)c(=O)n4C)c2ccccc2C3=O)c1 (stereo not drawn)	-3	-1.3
CC1CCC(N2C(=O)c3cc4sccc4n3CC2(C)C(=O)NC2CCCC2)CC1 (stereo not drawn)	-1.6	1.1
Cn1cc(-c2cc3n(n2)CCCN3C(=O)CCC(=O)N2CCN(c3ccccc3)CC2)c2ccccc21	·	1.3
CNS(=O)(=O)c1ccc(-c2coc(C)n2)cc1	·	-0.28
O=C(Nc1ccc2oc(-c3ccccc3Br)nc2c1)c1ccc2c(c1)OCCO2	-3.4	·
O=C(O)c1csc(-c2ccccc2)c1Cc1ccccc1	-2	2.3
O=S(=O)(Nc1nc2ccc(S(=O)(=O)N3CCCCC3)cc2s1)c1ccc(F)cc1	·	-0.16
Cc1ccc(OCc2cc(=O)n3c4c(sc3n2)CCCC4)c(C)c1	-3.7	-1.1
O=C1C(c2ccncc2)N(CCC2=CCCCC2)C(=O)CN1C1CCCCC1 (stereo not drawn)	-1.7	·

A different layout for 2 compounds above:
Molecule | CDC25B-CDK2 inh | TAR Tat displ
COc1cc(C2Nc3ccccc3NC3=C2C(=O)CC(c2ccccc2)C3)cc(Br)c1O (stereo not drawn) | -3.5 | -5.7
Cc1ccc(-n2ncc3c(N4CCN(CCO)CC4)ncnc32)cc1Cl | · | 0.44

New compounds follow.
SMILES	CDC25B-CDK2 inh	TAR Tat displ
COc1ccc(C2C3=C(CCCC3=O)Nc3nc(SCc4ccccc4F)[nH]c(=O)c32)cc1OC (stereo not drawn)	-2	0.4
CC1NC(=S)N2C(C)NC(=S)N12 (stereo not drawn)	-1.3	·
O=C(COCc1cc(-c2ccc3c(c2)OCO3)on1)N1CCC(N2CCCCC2)CC1	·	0.37
COc1ccc(-c2c(C)nn3c2N=C(c2ccco2)CC3c2ccccc2)cc1 (stereo not drawn)	-0.07	-7.2
Cc1cc(NC(=O)C2CC(c3ccc(F)cc3)=NO2)no1 (stereo not drawn)	-0.82	2.5
CC1CCCN(C(=O)[C@H]2[C@@H]3C[C@@H]4[C@H]2C(=O)O[C@@H]4C3)C1 (stereo partly drawn)	-1.7	1.4
CCOC(=O)c1c(C)[nH]c(C)c1S(=O)(=O)N1CCC(C(=O)NCC2CCCO2)CC1 (stereo not drawn)	·	1.2
Cc1noc(/C=C/N(C)C)c1S(=O)(=O)N1CCCC(C(=O)Nc2ccc3c(c2)OCO3)C1 (stereo not drawn)	-0.44	-2.5
O=C1CCSc2ccc(S(=O)(=O)N3CCN(c4ccc(Cl)cc4)CC3)cc2N1	·	0.46
CCOC(=O)c1csc(NC(=O)c2ccc(-c3nc4ccccc4s3)s2)n1	·	0.2

The order is random (roughly 0.89% active in at least one column).
